# NS1 function inh: qHTS Assay for Inhibitors of Influenza NS1 Protein Function; S. cerevisiae slowed by influenza A NS1, growth recovery by OD600; Potency, µM (top dose mostly 46.1 µM), inactives show at the top dose activity, positive = more growth; 0.4% of 270,000 active; AID 2326, 2010; also: actives are rising curves; nearly all actives have a fitted effect of over 50% in size
#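 Compounds were scored for reversing the slow growth caused by influenza A NS1 in S. cerevisiae, measured by optical density at 600 nm. Assay medium contained 2% galactose at pH 6.0; NS1-free yeast of the same strain were the positive control.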
# Marburg entry inh: qHTS for inhibitors of binding or entry into cells for Marburg Virus; Marburg virus pseudotyped entry inhibition, cell reporter; control for the full effect not named in the record; about a third of the inactives were read at about 46 µM; Potency, µM (series often up to 37.8 µM), inactives show top-dose activity change, negative = inhibition, hits mostly inhibitors; 1.8% of 300,000 active; AID 540276, 2011; active = well fitted inhibition curve with a large enough effect; inconclusive = small, poorly fitted or top-dose-only effect, or effect the other way; inactive = flat fitted curve, though single readings scatter; tested in HEK293 cells; about a fifth of its hits are not listed in these tables; also: % is scaled to controls: 0 for no effect and ±100 for the full control effect; luciferase read-out
# SARS PLpro yeast: qHTS of Yeast-based Assay for SARS-CoV PLP; S. cerevisiae expressing SARS-CoV PLpro, growth rescue; control for the full effect not named in the record; Potency, µM (titrated, usually from 32.9 µM), inactives show at the top dose activity, positive = growth rescue; 0.19% of 330,000 active; AID 485353, 2010; also: 0% is about no effect; nearly all actives have a fitted effect of over 55% in size; growth read by luminescence after 48 h
# Cruzain inh Det: qHTS Assay for Promiscuous and Specific Inhibitors of Cruzain (with detergent) | Cruzipain (Trypanosoma cruzi), P25779 | purified cruzain, Z-FR-AMC fluorescence, 0.01% Triton | Potency, µM, for the others: max response, negative = inhibition, actives largely listed as inhibitors | 0.43% of 200,000 active | AID 1478, 2009; active = well fitted curve in the direction sought with a large enough effect; inconclusive = small, poorly fitted or top-dose-only effect, or another doubt; inactive = no such curve, though single readings can be large; an effect the other way counts as inactive or inconclusive;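 also: plate controls were neutral wells for no effect and buffer without enzyme for full effect; nearly all actives have a fitted effect of over 40% in size; top concentration of the series not given in the record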
# Target sequence (P25779 123-467 limits assumed): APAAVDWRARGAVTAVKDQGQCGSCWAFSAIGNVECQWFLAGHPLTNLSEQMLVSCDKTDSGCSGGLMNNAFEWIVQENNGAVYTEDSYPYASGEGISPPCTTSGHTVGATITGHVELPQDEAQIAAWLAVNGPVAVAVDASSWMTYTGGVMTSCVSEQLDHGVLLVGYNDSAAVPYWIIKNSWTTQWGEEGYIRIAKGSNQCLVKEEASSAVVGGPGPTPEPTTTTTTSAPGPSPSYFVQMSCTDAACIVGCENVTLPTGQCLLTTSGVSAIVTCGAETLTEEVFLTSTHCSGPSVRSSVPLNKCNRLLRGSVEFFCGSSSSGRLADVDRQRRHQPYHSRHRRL
#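 15 min RT preincubation of 1.5 nM cruzain with compound, then 2 uM Z-FR-AMC added; kinetic AMC fluorescence, 60 s delta. Triton X-100 0.01%, pH 5.5.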
# LASV entry inh: qHTS for Inhibitors of binding or entry into cells for Lassa Virus; Lassa virus pseudotype entry inhibition, cell reporter; control for the full effect not named in the record; Potency, µM (top dose mostly 37.9 µM), for inactives: top-dose activity change, negative = inhibition, usual class: inhibitors; 1.2% of 300,000 active; AID 540256, 2011; active means well fitted inhibition curve with a large enough effect; inconclusive means small, poorly fitted or top-dose-only effect, or effect the other way; inactive means flat fitted curve, though single readings scatter; tested in HEK293 cells; also: % is scaled to controls: 0 for no effect and ±100 for the full control effect; nearly all actives have a fitted effect of over 50% in size; luciferase read-out
# 2A StopGo: High Throughput Screening for Foot and Mouth Disease Virus Antivirals | human cells with a luciferase reporter of 2A StopGo recoding; control for the full effect not named in the record | Potency, µM (top dose mostly 57.9 µM), for inactives: at the top dose signal change, negative = less light | 1.2% of 410,000 active; active = well fitted falling curve with a large enough effect; inconclusive = small, poorly fitted or top-dose-only effect; inactive = no such curve, though single readings can be large or run the other way; tested in HEK293T cells; also: % is scaled to controls: 0 for no effect and ±100 for the full control effect; nearly all actives have a fitted effect of over 45% in size; luciferase light after 4 h
# RE007 growth inh: qHTS Assay for Inhibitors of the HIV-1 protein Vpr; 0.21% of 360,000 active; AID 651644, 2012; Potency, µM (top dose mostly 92.2 µM), for the others: at the highest dose activity change, negative = less growth; S. pombe RE007 Vpr strain, BacTiter-Glo ATP luminescence, 24 h; control for the full effect not named in the record; active = well fitted falling curve with a large enough effect; inconclusive = small, poorly fitted or top-dose-only effect; inactive = no such curve, though single readings can be large or run the other way;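 also: % is scaled to controls: 0 for no effect and ±100 for the full control effect; nearly all actives have a fitted effect of over 50% in size; the assay follows cell death caused by Vpr and the record does not say whether a fall means rescue or toxicity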
#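 Fission yeast RE007 carrying one integrated HIV-1 vpr copy, seeded at OD 0.01 in PMG+AL medium with 23 nL pinned compound. Grown 24 h at 30 degrees; viability read by BacTiter-Glo luminescence after 5 min.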
# Cruzain noTriton: qHTS Assay for Promiscuous and Specific Inhibitors of Cruzain (without detergent); purified cruzain, Z-FR-AMC fluorescence, no detergent; 2.3% of 200,000 active; Potency, µM, inactives show max response, negative = inhibition, actives largely listed as inhibitors; active = well fitted curve in the direction sought with a large enough effect; inconclusive = small, poorly fitted or top-dose-only effect, or another doubt; inactive = no such curve, though single readings can be large; an effect the other way counts as inactive or inconclusive;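 also: plate controls were enzyme without inhibitor for no effect and buffer without enzyme for full effect; nearly all actives have a fitted effect of over 40% in size; top concentration of the series not given in the record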
#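 Purified cruzain at 1.5 nM, pre-incubated 15 min with compound at room temperature in 100 mM sodium acetate pH 5.5, 5 mM DTT, 0.00005% Triton X-100. Reaction started with 2 uM Z-FR-AMC; AMC fluorescence increase over 60 s gives rate.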
# * = called active by the depositor; ? = inconclusive; · = not tested or not shown; & = joins results of further samples; [ ] = dose if it differs, or a comment. Unless noted, calls follow the shape of the dose curve; as a rule, active means well fitted rising curve with a large enough effect; inconclusive means small, poorly fitted or top-dose-only effect; inactive means no such curve, though single readings can be large or run the other way. Potency is read from the fitted curve at half-maximal effect.
SMILES,NS1 function inh,Marburg entry inh,SARS PLpro yeast,Cruzain inh Det,LASV entry inh,2A StopGo,RE007 growth inh,Cruzain noTriton
COc1ccc(NC(=O)COC(=O)C2CCN(S(=O)(=O)c3ccccc3)CC2)cc1Cl,·,?,-1%,·,16%,-25%,-4%,·
O=C(COc1ccc(Cl)cc1Cl)N/N=C/C1CC=CCC1 (stereo not given),5%,4%[46.1 µM],-3%,·,?,16%,-9%,·
O=S(=O)(NCC1CCN(c2ccc(S(=O)(=O)N3CCOCC3)cc2)CC1)c1ccccc1,18%,?,26%,·,-14%,?,-13%,·
CCCOc1ccc(C(=O)N2CC3(CC(c4cccc(NC(=O)[C@@H]5CCC(=O)N5)c4)=NO3)C[C@H]2C(=O)NC2(C(N)=O)CC2)cc1 (stereo not given in full),-5%,0%,6%,0.6%,·,-15%,6%,?
COc1ccc(CNC(=O)N2CCN(c3cccc(C)c3C)CC2)cc1OC,-22%,?,5%,·,?,-13%,2%,·
CC/C(=N\NC(=O)c1ccccc1O)c1c(O)n(C2CCCCC2)c(=O)[nH]c1=O,-8%,·,-4%,·,·,5%,-10%,·
CC(Oc1ccc(F)cc1)C(=O)Nc1ccccc1C(=O)NC1CC1 (stereo not given),·,9%,-6%,·,0%[46.1 µM],-6%,7%,·
CC(OC(=O)CN1C(=O)NC2(CCCC2)C1=O)C(=O)Nc1cccc(Cl)c1Cl (stereo not given),·,27%,1%,·,-3%,-7%,8%,·
O=C(CNc1ccc2ccccc2c1)N/N=C/c1ccccn1,-2%,?,-2%,·,?,16%,4%,·
CN(C(=O)COC(=O)C1COc2ccccc2O1)c1c(N)n(Cc2ccccc2)c(=O)[nH]c1=O (stereo not given),·,3%,2%,·,-1%,-17%,0%,·
Cc1ccc(NS(=O)(=O)c2ccc3[nH]c4c(c3c2)CCCCC4)cc1,·,·,·,-13%,-2%[46.1 µM],44%[activator],·,-7%
COc1ccc(NC(=O)NC2(C(=O)N3CCCC(C)C3)CCCCC2)cc1 (stereo not given),6%,?,-1%,·,·,13%,-16%,·
Cc1cccc(C(=O)Nc2ccc3nc(SCCOc4ccccc4)sc3c2)c1,·,-20%[46.1 µM],·,-2.3%,7%[46.1 µM],-21%,·,14%
O=C(O)c1cc(S(=O)(=O)N2CCCCC2)ccc1N1CCOCC1,·,0%,3%,·,8%,-1%,5%,·
O=C(CCNc1cccc(Cl)c1)c1ccco1,-49%,2%,7%,4.1%,12%,26%,-30%,-4%
O=C1C2C3c4ccccc4C(c4ccccc43)[C@@H]2c2nc3ccccc3n21 (stereo not given in full),5%,?,0%,3.2%,-18%,?,-1%,22%
Cc1ccc(N2CCN(C3=NC(=O)/C(=C\c4cccs4)S3)CC2)cc1,-25%,?,-16%,-5.5%,5%,-3%,25%,-17%
Cc1oc2c(c(C)cc3oc(=O)c(CC(=O)N[C@@H](CCCNC(N)=O)C(=O)O)c(C)c32)c1C,14%,·,1%,·,·,5%,-7%,·
COc1cc2c(cc1OC)C(c1cc(OC)c(OC)c(OC)c1)NCC2 (stereo not given),-2%,?,-2%,-0.9%,-3%,15%,6%,-8%
CN(Cc1ccccc1)C(=O)c1ccccc1NC(=O)c1ccccc1,2%,-16%,-5%,3.4%,3%,9%,-4%,-2%
Cc1cccnc1Nc1nc(-c2ccccc2)cs1,-89%,·,5%,·,·,8%,?,·
Cc1ccccc1C(=O)NC1CCN(C(=O)NC2CCCCC2)CC1,3%,-19%[46.1 µM],2%,·,-1%[46.1 µM],-3%,5%,·
CC(C)Oc1ccc(S(=O)(=O)N2CCOCC2)cc1NC(=O)C(C)Oc1ccc(F)cc1 (stereo not given),·,-13%,-2%,·,-25%,-13%,9%,·
O=C(CN(C(=O)CCC(=O)Nc1nccs1)c1ccc(F)c(Cl)c1)NCC1CCCO1 (stereo not given),5%,9%,3%,·,-10%,2%,-2%,·
Cc1cnc(C(=O)N2CCN(c3ccc(C(F)(F)F)cn3)CC2)cn1,3%,?,0%,·,-2%,-22%,-23%,·
CCOC(=O)c1c(C)[nH]c(CCC(=O)NCc2cccc(OC)c2)c1C,·,·,·,2.6%,-21%[46.1 µM],14%,·,11%
Cc1c(NC(=O)c2c(NC(=O)CNC3CC3)sc3c2CCCC3)c(=O)n(-c2ccccc2)n1C,23%,1%,1%,-0.5%,3%,-7%,-14%,-5%
O=C(COC(=O)c1ccccc1C(=O)c1ccccc1)Nc1ccc(SC(F)F)cc1,-11%,?,-15%,-4.0%,16µM*,?,-3%,-3%
Cc1ccc(-n2ncc3c(=O)[nH]c(SCC(=O)N4CCCCC4)nc32)cc1,-8%,·,-3%,-4.7%,·,-18%,-5%,-10%
Cc1ccnc(NC(=O)/C=C/c2ccccc2Cl)c1,-4%,2.6µM*,-18%,-7.0%,?,?,3%,-8%
CCOCCn1c(CN2CCN(c3ccc(OC)cc3)CC2)nc2c1c(=O)n(C)c(=O)n2C,-26%,0%,·,·,?,·,-2%,·
NC(=O)c1ccccc1NC(=O)CC12CC3CC(CC(C3)C1)C2,-10%,·,-6%,·,·,-30%,2%,·
CS(=O)(=O)Nc1ccccc1C(=O)Nc1cccc(Cl)c1,-6%,?,-3%,4.7%,-1%,·,6%,-2%
O=C1C(c2ccc(F)cc2)N(Cc2ccccc2Cl)C(=O)CN1C1CCCCC1 (stereo not given),·,·,·,-0.7%,-1%[46.1 µM],-18%,·,-4%
O=C1c2cnc3nc(SCc4ccc(Cl)cc4)nn3c2CC2c3ccccc3CCN12 (stereo not given),3%,?,9%,1.1%,-7%,-14%,0%,16%
CC(=O)N(c1ccc(Cl)cc1)c1c[nH]c2ccccc12,2%,?,55%,-2.3%,-6%,·,-9%,0%
CN(C)CCCN(C(=O)c1ccc(Cl)s1)c1nc2cc3c(cc2s1)OCO3,-13%,·,13%,·,·,-5%,-6%,·
COc1ccc(C2C(C)C3(O)CC(C#N)(C(=O)N3)C2(C#N)C#N)cc1 (stereo not given),3%,8%&8%[46.1 µM],0%,·,0%,4%,-4%,·
O=C(C1CCCCC1C(=O)N1CCCCC1)N1CCCCC1 (stereo not given),·,24%,·,·,2%[46.1 µM],-16%,-4%,·
COc1ccccc1CNC(=O)CCNC(=O)Cn1cnc2ccccc2c1=O,-2%,-5%,-8%,5.5%,21%,4%,-13%,-3%
O=C(NC(=S)NCc1ccccc1)c1cccc([N+](=O)[O-])c1,1%,·,12%,·,·,19%,-20%,·
COc1ccccc1CCNC(=O)CCn1nc(C)c2c(C)n(-c3ccccc3)nc2c1=O,-7%,·,3%,·,·,-16%,-4%,·
CCOc1cc(/C=N\Nc2ncc(F)c(N3CCOCC3)n2)ccc1Oc1nc(Cl)ncc1F,6%,?,2%,·,?,16µM*,-8%,·
COc1cc(/C=N/n2c(C)nnc2C)cc(OC)c1OC,1%,-3%,3%,1.4%,-10%,-4%,8%,6%
C=CCn1c(SCC(=O)NC2CCS(=O)(=O)C2)nc2sc(CC)cc2c1=O (stereo not given),4%,0%,10%,-1.0%,-1%,2%,2%,-2%
Cc1ccc(NC(=O)c2ccccc2OCc2c(C)noc2C)cc1S(=O)(=O)N(C)C,·,3%,-1%,·,-6%,14%,8%,·
O=S(=O)(Oc1ccccc1)c1cccnc1,·,6%,·,·,20%,6%,-2%,·
COc1cccc(OC)c1C(=O)Nc1cccc(NC(=O)c2cccs2)c1,11%,·,8%,·,·,-2%,-5%,·

# Compound profiles, as listed above. Order of screens: NS1 function inh | Marburg entry inh | SARS PLpro yeast | Cruzain inh Det | LASV entry inh | 2A StopGo | RE007 growth inh | Cruzain noTriton
# COc1ccccc1CCNC(=O)CCn1nc(C)c2c(C)n(-c3ccccc3)nc2c1=O is listed as -7% | · | 3% | · | · | -16% | -4% | ·
# O=C(C1CCCCC1C(=O)N1CCCCC1)N1CCCCC1 (stereo not given) is listed as · | 24% | · | · | 2%[46.1 µM] | -16% | -4% | ·

# Next part
SMILES,NS1 function inh,Marburg entry inh,SARS PLpro yeast,Cruzain inh Det,LASV entry inh,2A StopGo,RE007 growth inh,Cruzain noTriton
CN(C)C(=O)c1cc(C(=O)c2c(F)cccc2F)c[nH]1,2%,15%[46.1 µM],2%,·,3%[46.1 µM],13%,12%,·
Cc1ccccc1C(=O)Nc1ccc(S(=O)(=O)N2CC(C)OC(C)C2)cc1 (stereo not given),-5%,?,-4%,·,-1%[46.1 µM],-9%,0%,·
CC(=O)Nc1ccc(S(=O)(=O)N2CCNC(=O)CC2)cc1,-3%,-2%,1%,7.1%,13%,0%,13%,11%
CCCc1cc(=O)[nH]c(SCC(=O)c2cc(C)n(C)c2C)n1,1%,-2%,4%,-12%,3%,-2%,-1%,-7%
CN(Cc1ccccc1)C(=O)c1ccc([N+](=O)[O-])o1,-30%,-18%,-68%,-5.4%,-8%,-4%,-15%,-3%
CN(CC(=O)NC1CC1)S(=O)(=O)c1ccc(F)cc1,-1%,·,19%,·,·,-2%,14%,·
CCOc1ccccc1N1CCN(C(=O)CCCc2nc3ccccc3s2)CC1,-7%,?,16%,-3.9%,1%,0%,-7%,?
CCCNC1=CC(=O)CC(C)(C)C1,3%,14%,-13%,-3.8%,15%,-3%,-8%,-5%
O=C1C=CC(=Nc2ccc(F)cc2)O1,·,-1%[46.1 µM],·,·,-13%[46.1 µM],-9%,5µM*,·
Cc1cc(Cl)c(OCCCn2ccnc2)c(Br)c1,2%,1%,-23%,-1.2%,?,?,10%,3%
CCCCCCn1c(CN2CCCC(C)C2)nc2c1c(=O)n(C)c(=O)n2C (stereo not given),-7%,?,29%,2.0%,0%,?,-4%,-6%
CC(C)(C)c1ccc(OCC(=O)Nc2ccc(Cl)cc2C(=O)c2ccccc2)cc1,·,·,·,-2.2%,2%[46.1 µM],-10%,·,-30%
CC1CN(CCS(=O)(=O)c2cc(Cl)ccc2Cl)CC(C)O1 (stereo not given),-48%,2%,-14%,·,-24%,21%,3%,·
